E coli growth = E. coli growth inhibition, primary screen, OD600. OD600 absorbance (test concentration not listed). AID 1053175, 2014. actives 0.21% (n = 330,000). Escherichia coli growth, 23 h; hits give low values;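 active = OD600 absorbance below the run mean of sample wells minus 3.6 SD, in any replicate, cut at about 0.56 in these data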;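 note: stock transfer was 300 nL into about 60 µL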
Vif TR-FRET = inhibitors of Vif binding to APOBEC3G peptide, primary screen, biochemical, TR-FRET, GST-Vif 1-94, biotin-A3G peptide, dose response retest (AID 1117319); Virion infectivity factor (Human immunodeficiency virus type 1 group M subtype B (isolate …; TR-FRET GST-Vif / biotin-A3G peptide binding; higher % means a stronger effect; test concentration not given here; strong numbers were not always called active; inhibition, %; hits with a dose series show IC50 in µM; actives 0.57% (n = 260,000);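 active = above the screen mean plus three standard deviations and confirmed in dose response; inconclusive = results disagree or hit not tested in dose response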;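 note: Vif residues 1-94 fused to GST binding biotinylated APOBEC3G peptide 110-148; 0% = full assay without inhibitor and 100% = GST in place of GST-Vif; retest series ran down from 100 µM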
AF4-AF9 inh = inhibitors of AF4 peptide binding to AF9, primary screen, biochemical, AlphaScreen, biotin-AF4 peptide, FLAG-AF9, single point | Protein AF-9 (Homo sapiens), P42568 | inhibition, % at 10 µM | actives 0.47% (n = 350,000);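 active = every replicate reaching a set inhibition limit, whatever the replicate mean, cut at about 25% in these data; inconclusive = mean inhibition reaches that limit but some replicates miss it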;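 note: 0% = plate neutral control median and 100% = total signal loss; the record names both 10 and 1 µM as test concentration; the first replicate is given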
FGF22 binding = binders of human FGF22 protein, primary screen, FGF22 synaptogenesis inhibitor project, biophysical, thermal shift, single point. Fibroblast growth factor 22 (Homo sapiens), Q9HCT0. recombinant FGF22 thermal shift, SYPRO orange fluorescence; percent of sucrose octasulfate shift, DMSO zero. calls only at 9.99 µM. actives 1.5% (n = 340,000). AID 651658, 2012;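 active = melting point raised past a set limit in the mean and every replicate; inconclusive = no clear call; three in four hits are not shown here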
Target sequence (Q9HCT0 whole entry, looked up): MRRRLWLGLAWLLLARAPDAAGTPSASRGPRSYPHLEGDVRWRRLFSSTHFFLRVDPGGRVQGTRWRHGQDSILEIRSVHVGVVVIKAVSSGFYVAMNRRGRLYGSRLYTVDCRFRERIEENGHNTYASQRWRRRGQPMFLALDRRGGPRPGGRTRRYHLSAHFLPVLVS
HNF4A DNA FP = change in binding of human HNF4A to DNA, primary screen, biochemical, fluorescence polarization, FITC-DNA | 1 h | Hepatocyte nuclear factor 4-alpha (Homo sapiens), P41235 | activity change, % at 10 µM | AID 1224865, 2016 | actives 0.3% (n = 360,000); in the data active = activity change above about 30%, passing the limit was not always enough;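 note: controls were the assay level and a saturating level of protein; the project sought stronger binding though the title names inhibitors; some compounds called inactive have numbers as strong as hits; positive values seem to mean higher polarization but the record does not say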
Target sequence (P41235 whole entry, looked up): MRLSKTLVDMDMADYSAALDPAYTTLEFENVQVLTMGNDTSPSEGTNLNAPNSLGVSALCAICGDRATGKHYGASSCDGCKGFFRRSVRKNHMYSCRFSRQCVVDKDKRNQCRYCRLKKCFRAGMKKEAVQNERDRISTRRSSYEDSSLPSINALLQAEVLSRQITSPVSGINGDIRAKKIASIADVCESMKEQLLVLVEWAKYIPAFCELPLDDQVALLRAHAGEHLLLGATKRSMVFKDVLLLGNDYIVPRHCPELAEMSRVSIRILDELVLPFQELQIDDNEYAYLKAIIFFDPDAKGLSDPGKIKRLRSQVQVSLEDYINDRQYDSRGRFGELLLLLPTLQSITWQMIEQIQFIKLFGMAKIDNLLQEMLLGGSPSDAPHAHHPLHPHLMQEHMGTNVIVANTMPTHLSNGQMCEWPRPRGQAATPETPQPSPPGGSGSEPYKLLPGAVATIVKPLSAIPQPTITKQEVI
RanGTP-Impb inh = inhibitors of RanGTP-importin-beta interaction, primary screen, biochemical, FRET, CFP-Ran, YFP-importin-beta, homogeneous | cell-free CFP-Ran/YFP-importin-beta FRET ratio | inhibition, % (concentration not given with the values) | actives 1.1% (n = 300,000);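 active = most replicates above 15%; inconclusive = exactly half above 15%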;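 note: 0% = DMSO wells and 100% = Ran loaded with GDP instead of GTP; wells of about 40 µL received 100 nL stock; the first replicate is given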
UCH37 inh = inhibitors of human UCH37 deubiquitinase, primary screen, biochemical, Ub-AMC cleavage, fluorescence. inhibition, % (concentration not given with the values). actives 0.33% (n = 330,000). purified proteasome/UCH37;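 active = mean of two replicates above 20%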;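 note: 0% = compound-free wells with enzyme and 100% = wells lacking proteasome; stock transfer was 100 nL into about 20 µL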
Target sequence (Q9Y5K5 whole entry, looked up): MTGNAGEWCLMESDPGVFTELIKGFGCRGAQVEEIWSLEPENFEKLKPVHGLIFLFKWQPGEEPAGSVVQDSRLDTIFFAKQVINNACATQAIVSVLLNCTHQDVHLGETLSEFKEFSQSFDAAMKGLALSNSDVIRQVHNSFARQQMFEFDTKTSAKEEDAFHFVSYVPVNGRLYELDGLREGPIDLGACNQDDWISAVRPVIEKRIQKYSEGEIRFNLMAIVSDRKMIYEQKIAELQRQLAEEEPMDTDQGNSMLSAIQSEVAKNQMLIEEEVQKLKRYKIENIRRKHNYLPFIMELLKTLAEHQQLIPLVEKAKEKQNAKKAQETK
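Signal – fluorescence, ex 355 nm, em 460 nm · System – Proteasome-bound UCH37 · Input – 0.15 nM proteasome as dispensed · Timing – 30 min preincubation with enzyme, 25 min cleavage at room temperature · Read-out basis – percent inhibition of cleavage signal versus uninhibited and no-proteasome wells · Medium – Tris-HCl pH 7.4 with ATP-MgCl2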
* hit, by the source's call; i = inactive; ? = inconclusive; / = no result given. Only part of the results is shown, so the mix of outcomes need not match the whole.

SMILES | E coli growth | Vif TR-FRET | AF4-AF9 inh | FGF22 binding | HNF4A DNA FP | RanGTP-Impb inh | UCH37 inh
Cc1ccc(CN2CCN(Cc3ccccn3)CC2CCO)cc1 (centres undefined) | 0.71 | -13% | 3.4 | i | -3.3 | 4.2 | 3.0
Clc1ccc2nc3ccccc3cc2c1 | / | -3% | 6.4 | i | 0.0 | / | /
O=C(CCNC(=O)c1ccccc1Cl)Nc1nc(-c2ccccc2Cl)cs1 | 0.68 | 16% | -1.6 | / | -1.7 | -1.1 | 3.4
Cc1cccc(NC(=O)CN2C(=O)CCSc3ccc(S(=O)(=O)N4CCOCC4)cc32)c1C | 0.68 | / | -5.2 | i | -8.5 | 1.6 | 1.9
Nc1c(N)c2ccccc2oc1=O | 0.67 | 2% | / | / | -0.2 | 20* | 0.5
CCCn1nnc(NC(=O)/C=C/c2ccco2)n1 | 0.7 | 7% | 1.4 | i | 2.3 | 1.8 | 5.2
Cc1ccc(S(=O)(=O)N(CCC(=O)NCc2ccc(S(N)(=O)=O)cc2)c2ccccc2)cc1 | 0.71 | -4% | -1.4 | i | 0.9 | / | -1.3
O=C(N/N=C/c1cn(-c2ccccc2)nc1-c1ccccc1)c1ccco1 | / | 6% | / | / | 3.1 | 0.2 | /
Cc1cc(NC(=O)COc2ccc3c(C)c(C)c(=O)oc3c2)no1 | / | -2% | 0.1 | i | 6.4 | / | /
COc1ccc(Nc2cc(C)nc(N3CCOCC3)n2)cc1 | 0.71 | 0% | / | / | 0.4 | / | -0.2

Single records, from the list above. Order of screens: E coli growth	Vif TR-FRET	AF4-AF9 inh	FGF22 binding	HNF4A DNA FP	RanGTP-Impb inh	UCH37 inh
Listed for Cc1ccc(S(=O)(=O)N(CCC(=O)NCc2ccc(S(N)(=O)=O)cc2)c2ccccc2)cc1 → 0.71	-4%	-1.4	i	0.9	/	-1.3
Listed for Cc1cc(NC(=O)COc2ccc3c(C)c(C)c(=O)oc3c2)no1 → /	-2%	0.1	i	6.4	/	/

Following part:
SMILES | E coli growth | Vif TR-FRET | AF4-AF9 inh | FGF22 binding | HNF4A DNA FP | RanGTP-Impb inh | UCH37 inh
O=C(NCc1ccc2c(c1)OCO2)c1cc(-c2ccccn2)nc2ccccc12 | 0.69 | / | 0.3 | i | 4.7 | 4.8 | -0.7
CCN(CC)CCCNC(=O)C1c2cc(OC)c(OC)cc2C(=O)N(C)C1c1cccnc1 (centres undefined) | 0.69 | 1% | -0.5 | i | 0.0 | 2.8 | 3.3
CCOCCCNC(=O)CCNS(=O)(=O)c1ccc(C)cc1 | 0.73 | -3% | / | / | -1.0 | -1.6 | 4.3
COc1ccc(OC)c(NC(=O)C2CCN(S(=O)(=O)c3ccc4c(c3)OCCO4)CC2)c1 | 0.71 | 6% | -2.4 | / | 0.1 | 3.0 | 1.0
O=C(NCCc1cnccn1)C1CCC(=O)N(Cc2ccc(Cl)cc2)C1 (centres undefined) | 0.72 | / | -3.6 | i | -1.8 | -4.2 | 4.2
CCN(CC(=O)Nc1cc(Cl)ccc1C)C(=O)CSCc1ccccc1 | 0.69 | -5% | -1.4 | i | -5.2 | / | 3.8
CC(=O)Nc1ccc(NC(=O)C2C3CCC(C3)C2C(=O)O)cc1 (centres undefined) | 0.7 | -5% | -1.4 | i | 0.3 | 1.0 | 2.1
CCCCCCN1C[C@@H](O)[C@H](n2cc(C3CC3)nn2)C[C@@H]1c1ccc(Cl)cc1 | / | / | -1.1 | i | 4.3 | / | /
COc1ccc(Cl)cc1N(C(C)C(=O)NC1CCCC1)S(C)(=O)=O (centres undefined) | 0.66 | 0% | -1.8 | i | 1.5 | -0.1 | -2.1
COc1ccccc1CNC(=O)COC(=O)c1ccc(S(=O)(=O)N2CCCCC2)cc1 | 0.69 | / | -2.0 | i | 0.8 | / | 0.5
O=C(O)Cn1c2ccccc2c2ccccc21 | 0.65 | 24% | -4.2 | / | -0.7 | 5.5 | 0.0
O=C(COc1ccc2ccc(=O)oc2c1)c1ccccc1 | 0.68 | -3% | 1.1 | i | -2.5 | 3.6 | -8.6
O=C(N/N=C/c1c(F)c(F)c(F)c(F)c1F)c1cccc(S(=O)(=O)N2CCOCC2)c1 | / | -5% | -4.4 | i | 0.8 | -0.8 | /
CCOc1ccc(CCNS(=O)(=O)c2ccc3c(c2)oc(=O)n3C)cc1OCC | 0.71 | 14% | 1.5 | i | -2.8 | 1.5 | -1.6
N#Cc1cccc(NC(=O)C2CCCN(C(=O)c3ccc(Cl)cc3)C2)c1 (centres undefined) | 0.66 | 1% | 1.3 | i | 3.0 | / | -0.1
CSc1n[nH]c(NCc2ccc(Cl)cc2)n1 | 0.73 | 0% | / | / | 1.1 | 0.2 | 2.3
Cc1nn(C(=O)c2ccccc2)c2c1C(=O)CC(C)(C)C2 | 0.7 | -4% | / | / | 2.6 | 4.9 | 1.1
CS(=O)(=O)CCC(C(=O)Nc1ccc2c(c1)OCO2)N1Cc2ccccc2C1=O (centres undefined) | 0.71 | 3% | 2.1 | i | 0.2 | 2.9 | 1.3
CC(=O)Nc1cc(C(=O)NCc2ccco2)ccc1Sc1ccc(F)cc1 | 0.74 | / | 5.5 | i | 3.5 | 7.1 | 5.1
Cc1nn(C)c(C)c1S(=O)(=O)N1CCCC(C(=O)N2CCN(c3ccc(Cl)cc3)CC2)C1 (centres undefined) | 0.75 | 3% | / | / | -3.0 | ? | 2.4

RanGTP-Impb inh: hit marks shown above
smiles,Vif TR-FRET,AF4-AF9 inh,RanGTP-Impb inh,UCH37 inh
Nc1c(N)c2ccccc2oc1=O,2%,/,20*,0.5

More structures follow.
SMILES | E coli growth | Vif TR-FRET | AF4-AF9 inh | FGF22 binding | HNF4A DNA FP | RanGTP-Impb inh | UCH37 inh
Cc1cc(NC(=O)CSc2cn(CC(=O)N(C(C)C)C(C)C)c3ccccc23)no1 | 0.68 | / | -2.2 | i | -1.2 | 1.9 | 6.5
Cc1ccc(OC(C)C(=O)OCC(=O)Nc2sccc2C(N)=O)cc1 (centres undefined) | 0.71 | / | -3.6 | i | 0.7 | / | 6.0
COc1ccc(OC)c(NC(=S)Nc2ccccc2)c1 | 0.62 | / | 0.5 | / | 2.3 | -4.2 | 2.4
CCOC(=O)N1CCN(Cc2ccc3ccccc3c2)CC1 | 0.66 | / | -5.3 | i | 0.8 | -2.2 | 0.5
CCCOC(=O)C(=O)NNc1ccccc1 | 0.64 | -4% | 0.2 | i | -1.5 | -1.6 | 3.1
O=C(Nc1ccc2c(c1)OCCO2)C1CCCN(S(=O)(=O)c2cnc[nH]2)C1 (centres undefined) | 0.74 | -5% | 9.8 | i | -2.8 | 143* | -0.5
CC(=O)Nc1cc(C(=O)N2CCc3ccccc3C2)ccc1Sc1ccc(C)cc1 | 0.72 | / | / | / | 5.2 | ? | 4.6
CCOc1ccc(C(=O)N2CCCC2C(=O)O)cc1 (centres undefined) | 0.67 | 8% | 0.1 | / | 0.5 | / | 0.9
CC(C)(C)C(=O)NCc1ccc(C(=O)CSc2nnc(-c3ccncc3)n2C2CC2)s1 | 0.65 | 3% | -24 | i | -5.7 | / | 2.4
Cc1ccc(-n2ncc3c(=O)n(CC(=O)N4CCN(c5ccccc5)CC4)cnc32)cc1C | 0.72 | -3% | -2.9 | i | -0.7 | 0.4 | 0.7

Sorted by the number under Vif TR-FRET (high to low): 3 of the compounds above.
canonical_smiles	Vif TR-FRET
CCOc1ccc(C(=O)N2CCCC2C(=O)O)cc1 (centres undefined)	8%
Cc1ccc(-n2ncc3c(=O)n(CC(=O)N4CCN(c5ccccc5)CC4)cnc32)cc1C	-3%
CCCOC(=O)C(=O)NNc1ccccc1	-4%

The results go on.
SMILES | E coli growth | Vif TR-FRET | AF4-AF9 inh | FGF22 binding | HNF4A DNA FP | RanGTP-Impb inh | UCH37 inh
Cc1cccc(OCC(=O)Nc2ccc3c(c2)nc2n3CCOC2)c1 | 0.71 | / | -0.7 | i | 2.0 | 1.5 | 1.0
Cc1cc(C)n2nc(SC(C)C(=O)N(C)c3ccccc3)nc2n1 (centres undefined) | 0.66 | 1% | 0.1 | i | -1.1 | / | -0.7
CCCn1cnc2c(sc3nc4c(cc32)CSC(C)(C)C4)c1=O | 0.68 | -4% | / | / | 3.5 | 0.5 | -2.3
CCOC(=O)COc1ccc(S(=O)(=O)Nc2cccc(SC)c2)cc1 | 0.66 | 30% | / | / | 0.6 | 8.0 | 1.8
Cc1ccccc1-c1cc(=O)c2ccccc2o1 | 0.63 | / | 0.6 | i | -2.1 | / | 3.5
Fc1ccc(-c2nnn(Cc3nc4ccccc4s3)n2)cc1 | 0.61 | -4% | / | / | -2.8 | -2.4 | -1.4
CC(C)(C)NC(=O)COC(=O)c1ccccc1Oc1ccccc1 | 0.74 | 14% | 2.2 | i | -2.8 | 4.8 | 2.0
CCOC(=O)c1oc2ccccc2c1CN1CCN(C)CC1 | 0.7 | ? | / | / | 0.4 | ? | 2.0
COc1cc(/C=C(\C#N)C(=O)NCC2CCCO2)ccc1OC(=O)c1ccco1 (centres undefined) | 0.63 | 4% | 0.9 | i | 0.1 | / | 2.7
COC(=O)c1ccc(CNC(=O)CNc2cc(C(F)(F)F)ccc2N2CCOCC2)cc1 | 0.66 | 4% | / | / | -1.1 | 7.2 | 2.7
CN(C)c1nc(C(=O)O)nc(N2CCOCC2)n1 | 0.69 | -5% | -1.1 | i | -2.5 | 5.9 | -0.4
O=C(NCc1ccco1)c1ccccc1-c1nc(-c2ccccc2)no1 | 0.7 | -2% | 1.6 | i | -2.5 | 1.0 | 3.0
COc1ccccc1/C=C(\NC(=O)c1ccccc1)C(=O)NCc1ccco1 | 0.68 | / | 0.7 | i | 2.3 | -1.1 | -0.5
Cc1cc(OC(F)F)ccc1NC(=O)Nc1ccc([N+](=O)[O-])cc1 | 0.54 | / | / | / | -0.2 | -2.7 | 4.8
COc1cccc(-c2ncc3ccccc3c2COC(=O)CCCC(=O)O)c1 | 0.66 | / | 2.3 | i | -2.6 | / | 3.4
CC(=O)N1N=C(c2cccc([N+](=O)[O-])c2)OC1c1ccccc1Cl (centres undefined) | 0.71 | -5% | / | / | -1.1 | 1.6 | 0.2
O=C(Nc1ccc(O)cc1)C1CC=CCC1 (centres undefined) | 0.66 | ? | / | / | -2.4 | 2.0 | 7.4
Cc1ccc(C(=O)C2=C(O)C(=O)N(Cc3cccnc3)C2c2ccc(Cl)cc2)o1 (centres undefined) | 0.69 | / | -2.1 | i | 0.8 | -2.6 | 6.8
CCOC(=O)c1cc2occc2n1Cc1c(F)cccc1Cl | 0.7 | 7% | / | / | 16 | 4.6 | 4.0
CCOCCC(=O)Nc1ncc(S(=O)(=O)c2ccc([N+](=O)[O-])cc2)s1 | / | 2% | 1.0 | i | -0.3 | / | /
Cn1c(CC(=O)Nc2ccc(Cl)c(Cl)c2)nnc1SCC(=O)Nc1nccs1 | 0.69 | 1% | / | / | 3.7 | 1.4 | -0.2
COc1ccc(Br)cc1/C=N/N1C(=O)CSC1=S | / | 3% | -2.1 | i | 3.0 | 0.5 | /
COc1cc(NC(=O)COC(=O)CSc2ccccc2F)c(C)cc1[N+](=O)[O-] | 0.64 | 2% | 0.6 | i | 1.3 | ? | 2.8
CC1(C)CC(NCc2ccc3c(c2)OCO3)CCO1 (centres undefined) | 0.73 | 3% | / | / | -2.9 | -2.6 | 0.7
Cc1c(NC(=S)NCc2ccc(F)cc2)cccc1[N+](=O)[O-] | 0.63 | 6% | 2.7 | i | -2.4 | -1.0 | 4.7
